# KCNQ2 inh = KCNQ2 channel blockers in CHO-K1 cells – cell-based, FluxOR thallium flux, B-score, primary screen (AID 2156); O88943; B-score at 10 µM; 20 min; active compounds read low; only compounds with negative scores are shown here; some inactives read as strong as hits; 310,000 tested, 1.1% active;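 active means fluorescence ratio B-score at most minus 3 library SDs, with starting brightness B-score within 2 library SDs, cut at about -5.5 in these data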
# Target sequence (O88943 whole entry, looked up): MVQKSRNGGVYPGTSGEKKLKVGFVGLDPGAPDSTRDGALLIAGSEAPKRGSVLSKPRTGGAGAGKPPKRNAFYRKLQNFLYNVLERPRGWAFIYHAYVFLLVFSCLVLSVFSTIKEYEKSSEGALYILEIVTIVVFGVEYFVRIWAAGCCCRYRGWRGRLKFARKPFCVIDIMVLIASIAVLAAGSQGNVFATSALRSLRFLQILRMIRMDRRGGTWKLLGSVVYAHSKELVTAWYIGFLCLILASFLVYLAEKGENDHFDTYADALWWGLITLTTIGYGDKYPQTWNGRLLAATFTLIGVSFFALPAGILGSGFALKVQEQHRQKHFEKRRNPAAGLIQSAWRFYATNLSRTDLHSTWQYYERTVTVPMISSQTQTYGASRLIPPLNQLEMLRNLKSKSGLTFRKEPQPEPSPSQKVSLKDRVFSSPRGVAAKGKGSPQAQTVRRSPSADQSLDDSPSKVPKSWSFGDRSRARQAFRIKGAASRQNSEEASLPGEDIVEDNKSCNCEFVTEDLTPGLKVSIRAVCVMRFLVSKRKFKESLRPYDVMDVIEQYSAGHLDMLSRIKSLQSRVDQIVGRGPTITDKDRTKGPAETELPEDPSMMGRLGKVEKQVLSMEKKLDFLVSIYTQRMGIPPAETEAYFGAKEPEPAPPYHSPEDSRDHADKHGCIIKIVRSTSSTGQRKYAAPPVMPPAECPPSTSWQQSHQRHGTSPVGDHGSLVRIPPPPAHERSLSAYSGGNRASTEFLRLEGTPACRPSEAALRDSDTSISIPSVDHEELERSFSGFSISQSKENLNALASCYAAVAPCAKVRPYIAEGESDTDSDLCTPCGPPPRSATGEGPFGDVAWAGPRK
# KCNQ2 inh baseline = also measured in KCNQ2 inh; calls as there; B-score; measured here: initial fluorescence intensity artifact check;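 brightness before thallium and not channel activity; 0 = typical well and far values either way flag optical interference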
# * hit, by the source's call; i = inactive. An excerpt (hit frequency here may not be typical).
SMILES,KCNQ2 inh,KCNQ2 inh baseline
COC(=O)COc1ccc(S(=O)(=O)Nc2ccc3c(c2)OCO3)cc1Cl,i,0.59
NS(=O)(=O)c1ccc(CCNC(=O)Cc2ccc(S(=O)(=O)N3CCCC3)s2)cc1,i,-1.36
COCC1CCCN(Cc2nc(Cc3ccccc3)no2)C1 (stereo not drawn),i,-0.79
CCCCn1c(SCC(=O)NCc2ccccc2)nc2ccc(N3CCOCC3)cc2c1=O,i,-0.67
COc1ccc(-c2cn(-c3ccc(SC(F)F)cc3)c3[n+]2CCC3)cc1OC,i,-3.35
COc1ccccc1-c1cc(C(F)(F)F)n2ncc(S(=O)(=O)c3ccccc3)c2n1,i,-0.94
CCCCCc1ccc(S(=O)(=O)NCCc2ccncc2)cc1,i,2.53
O=C1c2ccccc2C(Nc2ccc(-c3nc4ccccc4[nH]3)cc2)N1Cc1ccco1 (stereo not drawn),i,-0.14
CCC(=O)NNc1cc(=O)c2c(=O)n(C)c(=O)n(C)c2[nH]1,i,0.63
O=C(Nc1ccc(S(=O)(=O)N2CCCC2)cc1)c1cccnc1Cl,i,2.25
C=C(C)COc1ccc(-c2ncncc2-c2ccc(Cl)cc2)c(O)c1,i,-0.17
Cc1cc(F)ccc1S(=O)(=O)N(C(=O)c1ccncc1)c1ccc(OC(=O)c2ccncc2)cc1,i,-0.36

# The last 5 records of the section before lead into the next.
SMILES,KCNQ2 inh,KCNQ2 inh baseline
O=C1c2ccccc2C(Nc2ccc(-c3nc4ccccc4[nH]3)cc2)N1Cc1ccco1 (stereo not drawn),i,-0.14
CCC(=O)NNc1cc(=O)c2c(=O)n(C)c(=O)n(C)c2[nH]1,i,0.63
O=C(Nc1ccc(S(=O)(=O)N2CCCC2)cc1)c1cccnc1Cl,i,2.25
C=C(C)COc1ccc(-c2ncncc2-c2ccc(Cl)cc2)c(O)c1,i,-0.17
Cc1cc(F)ccc1S(=O)(=O)N(C(=O)c1ccncc1)c1ccc(OC(=O)c2ccncc2)cc1,i,-0.36
COc1ccc(C(=O)NNC(=S)NC(=O)c2ccc(OC)cc2)cc1,i,0.27
O=C(COC(=O)/C=C/c1cccc(Br)c1)NCc1ccco1,i,-0.38
CCOc1ccc(-c2nc(N)ncc2Oc2ccc(OC)cc2)c(O)c1,i,-0.13
O=C(N/N=C/c1sc(N2CCOCC2)nc1-c1ccccc1)c1ccccc1O,i,-0.15
CC1=NNC(=O)C1C(c1ccc(F)cc1)C(C#N)C#N (stereo not drawn),i,-1.31
O=c1c2cn[nH]c2nc(SCc2c(F)cccc2F)n1-c1ccc(Cl)cc1,i,1.19
COCc1c(CCl)cnc(C)c1O,i,1.66
O=c1c2c(nc3cc(-c4ccc(F)cc4)[nH]n13)CCCC2,i,-0.41
COc1ccc(Cc2nnc(NC(=O)Cn3cnc4c3c(=O)n(C)c(=O)n4C)s2)cc1,i,-1.14
CCN1CCN(c2ccc(S(=O)(=O)N3CCCCC3)cc2NC(=O)/C=C/c2ccc(F)cc2)CC1,i,0.67
COc1cc2c(cc1OC)C(C)N(C(=O)Cn1ncc3c1-c1ccccc1OC3)CC2 (stereo not drawn),i,0.03
COc1ccc(NC(=O)N2CC(C)OC(C)C2)cc1OC (stereo not drawn),i,-0.31
C/C(CCN1CCCCc2nc(C)c(C)cc21)=N\O[C@@H](C)CN1CCCCc2nc(C)c(C)cc21,i,0.02
O=C(NNC(=O)c1ccccc1Cl)c1ccco1,i,3.63
COc1ccc(-c2csc(NC(=O)COC(=O)c3ccco3)n2)cc1,i,2.67
Clc1ccc(SCCN2CCNCC2)cc1,i,-0.87
CC(=O)N1CCCc2cc(S(=O)(=O)N3CCCC(C(=O)N4CCN(c5cccc(Cl)c5)CC4)C3)ccc21 (stereo not drawn),i,0.5
CC(=N\NC(=O)c1ccccc1)/C(=N/O)C(=O)Nc1ccccc1,i,2.04
CSc1ccc(S(=O)(=O)NCC(=O)OCC(=O)N2CCCC2=O)cc1[N+](=O)[O-],i,-1.04
CCN1CCN(Cc2c3ccccc3cc3ccccc23)CC1,i,0.43
CC(=O)c1cccc(N/C=C\c2nnnn2-c2ccc(F)cc2)c1,i,-0.13
O=C(CCn1c(=S)[nH]c2ccccc2c1=O)NCCc1ccc(Cl)cc1,i,-0.24
COc1cc(OC)cc(C(=O)NCCN2CCOCC2)c1,i,0.78
Cc1ccc(N(C(=O)c2snc(C(N)=O)c2N)C(C(=O)NC2CCCC2)c2ccco2)cc1 (stereo not drawn),i,-0.44
COC(=O)Cc1ccc(NC(=O)c2ccc(Br)o2)cc1,i,1.81
NC(=S)N/N=C/C=C/c1ccccc1,i,-0.25
O=S(=O)(c1ccccc1)N1N=C(c2cccs2)CC1c1cccc(O)c1 (stereo not drawn),i,-1.09
CC1(C)CC(=O)c2sc(NC(=O)CCS(=O)(=O)c3ccccc3)nc2C1,i,-0.91
O=C(NC1CCCc2ccccc21)c1ccccc1Br (stereo not drawn),i,-0.27
O=C(/C=C/c1ccccc1)N1CCC(Cc2ccccc2)CC1,i,-0.03
COc1ccccc1Nc1nc(Cl)c(C=O)s1,i,0.18
Cc1cccn2c(=O)c(/C=N/O)c(N3CCCCC3)nc12,i,-0.23
CCCn1c(COc2ccccc2)nc2ccccc21,i,-0.05
Cc1ccc(NC(=O)C(=O)NCCCN2CCOCC2)c(C)c1,i,0.02
CCOc1ccc(NC(=O)CS(=O)CC(=O)N(CC(=O)NC(C)(C)C)C2CCCC2)cc1 (stereo not drawn),i,0.45
Cc1ccc(C)c(S(=O)(=O)N(C)C2(C)CCS(=O)(=O)C2)c1 (stereo not drawn),i,0.07
COc1ccc2[nH]c(C)c(CCNC(=S)Nc3ccccc3C)c2c1,i,0.72
N#Cc1nc(-c2cccs2)oc1N1CCN(c2ccccc2)CC1,i,-1.59
COC(=O)CSC1=C(C#N)C(c2ccc(C)o2)CC(=O)N1 (stereo not drawn),i,0.1
COc1ccccc1-c1nn(Cc2ccccc2)cc1/C=C/C(=O)O,i,0.23
O=C(CCCN1C(=O)/C(=C\c2cccs2)SC1=S)Nc1cccnc1,i,0.42
CCOc1ccc2nc(SCC(=O)N(CCOC)c3c(N)n(Cc4ccccc4)c(=O)[nH]c3=O)[nH]c2c1,i,-0.9
C#CCOc1ccc(Cl)cc1/C=C1/C(=O)ON=C1C,i,-1.88
CCN=c1sc(C(=O)OC)cc(=O)n1CC,i,-0.01
O=C1c2ccccc2C2(c3ccccc3)N1CCN2C(=O)C(Cl)(Cl)Cl (stereo not drawn),i,0.73
O=C(O)c1ccccc1-c1cn2cc(Cl)ccc2n1,i,0.15
Nc1cc(OC(=O)c2ccccc2Br)nn1S(=O)(=O)c1ccccc1,i,-1.04
CC(C)(C)NS(=O)(=O)c1ccc(/C=C/C(=O)O)cc1,i,-1.5

# An excerpt from above in order of their number in KCNQ2 inh baseline, rising.
SMILES,KCNQ2 inh,KCNQ2 inh baseline
N#Cc1nc(-c2cccs2)oc1N1CCN(c2ccccc2)CC1,i,-1.59
C/C(CCN1CCCCc2nc(C)c(C)cc21)=N\O[C@@H](C)CN1CCCCc2nc(C)c(C)cc21,i,0.02
COc1cc(OC)cc(C(=O)NCCN2CCOCC2)c1,i,0.78

# Other structures.
SMILES,KCNQ2 inh,KCNQ2 inh baseline
CC(C)CCNC(=O)CC1C(=O)N(Cc2ccccc2)C(C)c2nc3ccccc3n21 (stereo not drawn),i,1.74
Cc1cc(C)nc(S/C=C/C(=O)c2ccc(F)cc2)n1,i,1.71
CN1C(=O)CC(Nc2cccc3cccc(N)c23)C1=O (stereo not drawn),i,-0.58
Cc1nn(-c2ccc(Cl)cc2Cl)c(=O)c2ccccc12,i,1.76
O=C(Nc1nc2c(s1)CCCC2)c1cc(-c2ccccc2)nc2ccccc12,i,-0.56
O=C(c1cn(-c2ccccc2)nc1-c1ccc(F)cc1)N1CCOCC1,i,-0.67
CCOC(=O)C(NC(=O)Nc1ccc(C(N)=O)cc1)(c1ccccc1)C(F)(F)F (stereo not drawn),i,-1.32
CN(CCc1cnn(C)c1)C(=O)CCc1nnc(CCCc2ccccc2)o1,i,-0.15
Cn1c2c(c(=O)n(C)c1=O)CN(CCN1CCNCC1)CN2,i,1.5
COc1cccc(NC(=O)CN(C)C(=O)CC(C)c2ccccc2)c1 (stereo not drawn),i,0.19
C1COCCNCCOCCOCCOCCN1,i,0.24
Cc1ccc2nc(-c3ccccc3)nc(SC(C)C(=O)NCc3cccs3)c2c1 (stereo not drawn),i,1.93
CNC(=S)Nc1cc(C(=O)N2CCCC2)ccc1N1CCCC1,i,3.25
O=C(Nc1nc2c(s1)CCCC2)c1cc2n(n1)C(C(F)(F)F)CC(C1CC1)N2 (stereo not drawn),i,-1.96
CC(=O)c1ccc(NC(=O)c2ccc([N+](=O)[O-])o2)cc1,i,-1.44
O=C(Nc1ccc2snnc2c1)Nc1cccc2ccccc12,i,-0.88
C=CCOC(=O)Nc1ccc(Cl)cc1NC(=O)OCC=C,i,-0.05
COc1ccc(N2C(=O)CC(N(CCc3ccc(OC)c(OC)c3)C(=S)Nc3ccccc3)C2=O)cc1 (stereo not drawn),i,-1.66
CN(C)c1ccc(N/C=C/C(=O)C(F)(F)F)cc1,i,0.59
Cc1c(C2OC(=O)C3(CCCCC3)C(=O)C2(C)C)c(=O)n(-c2ccccc2)n1C (stereo not drawn),i,0.39
CCOc1ccc(S(=O)(=O)NCc2cccs2)cc1,i,-0.83
O=C(Cc1ccc(-c2ccccc2)cc1)N1CCOCC1,i,-0.75
CN1c2ccccc2C(C)(C)[C@]12C=Cc1cc(O)ccc1O2,-9.52*,-0.65*
CC1CCCN(c2ccc(C(=O)NCCc3ccccc3)cn2)C1 (stereo not drawn),i,-1.33
CCOC(=O)CC1C(=O)NCCN1S(=O)(=O)c1cc(Cl)c(Cl)cc1Cl (stereo not drawn),i,0.31
COc1cc(Cl)c(S(=O)(=O)NCc2cccnc2)cc1Cl,i,0.32
CCOc1cccc(C2C(C(=O)c3ccc(C)o3)=C(O)C(=O)N2c2nccs2)c1 (stereo not drawn),i,64
O=C(C1=NNCC1c1ccccc1)C1OC1c1ccccc1 (stereo not drawn),i,0.38
CCOC(=O)c1cc(-c2ccc(Cl)cc2)nc2c1c(=O)[nH]c(=O)n2CCOC,i,1.13
COc1cccc(N(C(=O)CNC(=O)c2ccco2)C(C(=O)NC2CCCCC2)c2cccnc2)c1 (stereo not drawn),i,0.46
Cc1ccnc(NC(=O)CCS(=O)(=O)c2ccccc2)c1,i,-0.08
CCCCc1cn([C@@H](CCCCN)C(=O)N2CCNCC2)nn1,i,0.94
CN1N=C(C(=O)N2CCCC(Nc3ccc(F)c(F)c3)C2)CCC1=O (stereo not drawn),i,-0.29
COc1ccc(C2=NO[C@@H]3[C@@H]4C[C@@H]([C@H]5C(=O)N(C)C(=O)[C@@H]45)[C@H]23)c(OC)c1,i,-0.48
COC(=O)Nc1ccccc1C(=O)N1CCN(c2ccc(C)cc2)CC1,i,1.42
Cc1[nH]ccc2c1[nH]c1cc(=O)ccc12,i,-1.1
Cc1ccc(SCC(=O)NCC(C)C)cc1,i,0.02
COc1cc(OC)cc(C(=O)NCCNc2nc3cc(C)cc(C)c3cc2C#N)c1,i,1.24
O=[N+]([O-])c1ccccc1OCC(O)CNC1CCCC1 (stereo not drawn),i,-0.27
NC(=O)/C=C\c1cn(-c2ccccc2)nc1-c1ccc2c(c1)OCCO2,i,1.55
COC(=O)c1cc(OC)c(OC)cc1NC(=O)CN1CCOCC1,i,0.84
Cc1cc(NC(=O)c2cccc(S(=O)(=O)N(C)C)c2)n(-c2ccccn2)n1,i,1.78
CC1CCN(C(=O)c2[nH]cnc2C(=O)N[C@@H](C)C(=O)OCc2ccccc2)CC1,i,-0.01
O=C(COC(=O)c1ccc(N2CCCC2=O)cc1)c1ccc(OC(F)F)cc1,i,-0.21
Cc1nn(-c2ccccn2)c2c1C(c1c(F)cccc1Cl)C1=C(N2)c2ccccc2C1=O (stereo not drawn),i,-0.02
CCCCNC(=O)CC1C(=O)N(Cc2ccccc2)C(C)c2nc3ccccc3n21 (stereo not drawn),i,0.2
COc1ccccc1P(=O)(c1ccccc1)c1ccc([N+](=O)[O-])cc1 (stereo not drawn),i,-1.65
Cn1nc(-c2ccc(N3CCCCC3)c(NC(=O)c3ccco3)c2)c2ccccc2c1=O,-5.6*,-0.28*

# Pulled one by one from above, five records:
SMILES,KCNQ2 inh,KCNQ2 inh baseline
Cc1ccc(SCC(=O)NCC(C)C)cc1,i,0.02
NC(=O)/C=C\c1cn(-c2ccccc2)nc1-c1ccc2c(c1)OCCO2,i,1.55
CCCCNC(=O)CC1C(=O)N(Cc2ccccc2)C(C)c2nc3ccccc3n21 (stereo not drawn),i,0.2
O=[N+]([O-])c1ccccc1OCC(O)CNC1CCCC1 (stereo not drawn),i,-0.27
CC1CCN(C(=O)c2[nH]cnc2C(=O)N[C@@H](C)C(=O)OCc2ccccc2)CC1,i,-0.01

# (next part)
SMILES,KCNQ2 inh,KCNQ2 inh baseline
CCN1CCN(C(c2ccccc2)c2nnnn2Cc2ccc(OC)cc2)CC1 (stereo not drawn),i,-1.57
C=C(C)CSc1cc(C)nc2c(-c3ccccc3)c(C)nn12,i,0.69
COc1ccc(N=C2SC(CC(=O)Nc3ccc(OC)cc3OC)C(=O)N2C)cc1 (stereo not drawn),i,-0.39
CCc1ccc(/C=N/Nc2nn[nH]n2)cc1,i,0.34
O=S(=O)(c1ccc(Cl)cc1)N1CN(CC2CCCO2)c2nc3ccccc3nc21 (stereo not drawn),i,-2.06
O=C(O)CCCC(=O)Nc1ccc(S(=O)(=O)Nc2nccs2)cc1,i,-0.03
Cc1ccc(OCC(O)Cn2c(N3CCOCC3)nc3c2c(=O)[nH]c(=O)n3C)cc1 (stereo not drawn),i,-2.57
O=C(c1c(Cl)nc2sccn12)N(C(=O)c1c(Cl)nc2sccn12)c1ccc(Cl)cn1,i,0.96

# Bioassay records as filed in PubChem.
